Screens (PubChem BioAssay)
Calb biofilm kill: mixture kills Candida albicans biofilm cells | C. albicans biofilm persisters + clotrimazole, fluorescence viability; primary screen in compound mixtures of four per well | inhibition, % at 7.6 µM | 120,000 tested, 0.02% active;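 active = inhibition above 30.3% in the primary screen of four-compound pools, then above 30% when the compound was retested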;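 also: compounds exposed to preformed 24 h biofilms for 48 h; the number belongs to the whole pool; some results filed as inactive read as strong as hits; inactives centre near 12; 0% = biofilm with clotrimazole alone and 100% = kill control; retested singly at about 60 µM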
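Assay system: C. albicans biofilms / Medium: RPMI/MOPS medium, pH 7.0 / Schedule: biofilm formation 24 h, compound exposure 48 h, 37 °C / Measured by: Alamar Blue fluorescence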
Starred values were filed as active, the others as inactive; & = joins results of further samples. An excerpt; the hit share may differ from the screen's.

item	SMILES	Calb biofilm kill
1	CN1C(=O)S/C(=C/c2ccccc2OCc2ccc(C(=O)O)cc2)C1=O	9
2	COc1ccccc1NC(=O)c1ccc(COc2ccc3c(c2)CCC3)cc1	10
3	COc1ccccc1/C=C/C(=C1/C(=O)N(c2ccccc2)N=C1C)c1ccc(C)cc1	7
4	CC(C)[C@H](NC(=O)c1ccccc1)C(=O)OCc1nnc(-c2ccccc2)o1	11
5	Cc1nnc(SCC(=O)NC2CC2)n1CC1CCCO1 (stereo unspecified)	6
6	Cc1cccc(Oc2ccc(NC(=O)c3ccccc3C(=O)O)cc2)c1C	11
7	NS(=O)(=O)c1ccc(CCNC(=O)CN2CCN(c3ccccc3F)CC2)cc1	15
8	Clc1cccc(C[n+]2cc(-c3ccccc3)n3c2CCC3)c1	20
9	COC(=O)c1sccc1NC(=O)c1cccs1	15
10	CC(C)(C)C(=O)C[n+]1cccc(C(N)=O)c1	10
11	OCn1c2ccccc2c2ccccc21	21
12	CCOn1c(=O)c(-c2cccc([N+](=O)[O-])c2)[n+]([O-])c2ccccc21	24
13	Cc1ccc(S(=O)(=O)N2CCCCC2)cc1NC(=O)COC(=O)CNC(=O)c1cc(Cl)cc([N+](=O)[O-])c1	19
14	Clc1ccc(CSc2ncnc3nc[nH]c23)cc1	16
15	Cc1ccc(-c2onc3ccc(C4OCCO4)cc23)cc1	3
16	Cc1ccc(NS(=O)(=O)c2ccc(CCC(=O)NCc3cccnc3)cc2)cc1	12
17	O=C(CSc1ccc(-c2ccccc2)nn1)Nc1ccc2c(c1)OCCO2	10
18	CC1(C)CC(=O)C2=C(C1)N=C1SCCC(=O)N1C2c1cccc([N+](=O)[O-])c1 (stereo unspecified)	9
19	N#Cc1cc2c(nc1Cl)CCC2	6
20	CC(C)C1(C(C)C)OC(=O)c2ccccc21	7
21	O=C(CCCSc1nc2ccccc2[nH]1)NC(c1ccccc1)c1ccccc1	13
22	CC(=O)Nc1ccc(NC(=O)CSc2nnc(C)c(=O)[nH]2)cc1	7
23	O=C(CNC(=O)Cc1ccccc1)N=Nc1c(O)n(Cc2ccc3c(c2)OCO3)c2ccccc12	14
24	O=C1CCN(Cc2ccccc2)S(=O)(=O)c2ccccc21	16
25	CCN1CCN(c2cc(C)c3cc(NC(=S)NCCCN4CCc5ccccc5C4)ccc3n2)CC1	22
26	O=C(CSCc1ccc(F)cc1)NCc1ccc2c(c1)OCO2	10
27	CCCCCCN1C=CC=C/C1=C/C=C(C#N)C#N	10
28	Cc1occc1C(=O)Nc1nnc(-c2cccs2)s1	13
29	Cc1cccc(NC(=O)CSc2c3c(nc4ccccc24)CCC3)n1	2
30	COc1ccc(NC(=O)NCCc2cccc(Cl)c2)cc1OC	17
31	COc1cc(C(=O)N2CCN(S(=O)(=O)c3cccs3)CC2)cc(OC)c1C	9
32	CCOC(=O)N1[C@@H]2C=C(C)[C@@H]2[C@@H]2[C@@H](C)C(=O)N21	4
33	Cc1c(Br)c(C(=O)NCc2cc3cc(Cl)ccc3[nH]2)nn1C	11
34	Cc1onc(C(=O)N2CCN(Cc3ccccc3)CC2)c1[N+](=O)[O-]	18
35	COc1ccc(/C=C/CN2CCCC(C(=O)c3cc(F)ccc3F)C2)cc1 (stereo unspecified)	8
36	CCOC(=O)C(Cc1ccccc1)C(=O)Nc1ccc(N(CC)CC)cc1 (stereo unspecified)	14
37	CCOc1ccc(-c2csc(/C(C#N)=C\c3ccc(O)c([N+](=O)[O-])c3)n2)cc1	16
38	FC(F)(F)c1nnc2ccc(Sc3ccccn3)nn12	28
39	CC(OC(=O)CCc1nc(=O)c2ccccc2n1C)C(=O)NCc1ccc2c(c1)OCO2 (stereo unspecified)	-2
40	CCOC(=O)C1=C(C)NC(=S)NC1c1ccsc1 (stereo unspecified)	12
41	NNC(=O)c1ccc(CSc2cccc3cccnc23)cc1	20
42	COc1ccc(-n2cnnc2SC(C)C(=O)Nc2cccc([N+](=O)[O-])c2)cc1 (stereo unspecified)	15
43	O=C(N/N=C/c1ccc(-c2ccccc2C(=O)O)o1)c1cccs1	11
44	CCN(CC)S(=O)(=O)c1ccc(N2CCOCC2)c(NS(=O)(=O)c2ccc(OC)cc2)c1	19
45	Oc1ccc(/C=N/NC(=S)N2CCOCC2)cc1	19
46	CCC/C=C(\CCC)C(NS(=O)(=O)c1ccc(C(F)(F)F)cc1)c1ccccc1 (stereo unspecified)	16
47	CC(C)C[C@H]1C(=O)N2CCC[C@H]2[C@]2(O)O[C@](NC(=O)[C@@H]3C=C4c5cccc6[nH]c(Br)c(c56)CC4N(C)C3)(C(C)C)C(=O)N12 (stereo partly specified)	10
48	Clc1ccc(C2CC(c3ccco3)n3ncnc3N2)cc1Cl (stereo unspecified)	13
49	CSCC(=O)Nc1cc(C)on1	21
50	CCc1c(C)sc(NC(=O)/C=C/C(=O)O)c1C(N)=O	28

Additional entries follow:
item	SMILES	Calb biofilm kill
51	CN(Cc1ccccc1)CC(O)COc1ccc(CNCc2ccc(Cl)s2)cc1 (stereo unspecified)	5
52	CCc1nc2sc(C(=O)O)c(N)c2c2c1CCCC2	18
53	CCn1c(C)nc2cc(C(=O)NNC(=S)Nc3ccc(Cl)cc3Cl)ccc21	-3
54	CC(N)C12CC3CC(CC(C3)C1)C2 (stereo unspecified)	17&2
55	NS(=O)(=O)c1cc2c(cc1Cl)NC(Cc1ccccc1)NS2(=O)=O (stereo unspecified)	5
56	CCOc1cc(NC(=S)NCCCN2CCOCC2)c(OCC)cc1NC(=O)c1ccc(OC)cc1	11
57	CN(C)S(=O)(=O)c1ccc(NC(=O)COC(=O)Cn2[nH]c(=O)c3ccccc3c2=O)cc1	32
58	Cc1nn2c(NCc3ccccn3)c3c(nc2c1-c1ccccc1)CCC3	11
59	S=c1[nH]nc(Cc2cccs2)n1-c1cccc2ccccc12	11
60	Cc1c(NC(=O)c2ccccc2)c(=O)n(-c2ccccc2)n1C	13
61	O=C(C1=C(O)C(=O)N(CCc2ccccc2)C1c1ccncc1)c1cc2ccccc2o1 (stereo unspecified)	4
62	Cc1cc([N+](=O)[O-])nn1Cc1ccc(F)cc1	-8
63	CC(C)(C)C(=O)NC(NC(=S)Nc1ccc(S(N)(=O)=O)cc1)C(Cl)(Cl)Cl (stereo unspecified)	7
64	Cc1cc(C)nc(SCc2ccc(C(=O)N/N=C3\CCCC(=O)C3)cc2)n1	3
65	CCCN(Cc1cc2cc(C)ccc2[nH]c1=O)C(=O)c1cccc([N+](=O)[O-])c1	26
66	Nc1nc2nccc(-c3cccnc3)n2n1	17
67	Cn1cnnc1Sc1ccc(C(=O)NCCC(c2ccccc2)c2ccccc2)cc1[N+](=O)[O-]	12
68	O=C(Cc1ccc2c(c1)CCCC2)Nc1ccc2ccccc2c1	14
69	CCn1nnnc1SCC(=O)N1CCCc2ccccc21	12
70	COc1ccc2[nH]c3c(=S)nc[nH]c3c2c1	8

3 entries from above, reformatted.
#68 O=C(Cc1ccc2c(c1)CCCC2)Nc1ccc2ccccc2c1
- Calb biofilm kill: 14

#67 Cn1cnnc1Sc1ccc(C(=O)NCCC(c2ccccc2)c2ccccc2)cc1[N+](=O)[O-]
- Calb biofilm kill: 12

#70 COc1ccc2[nH]c3c(=S)nc[nH]c3c2c1
- Calb biofilm kill: 8

Next part:
item	SMILES	Calb biofilm kill
71	CC(C)n1c(SCC(=O)Nc2nc3c(s2)CCCC3)nc2c1c(=O)n(C)c(=O)n2C	6
72	O=C1c2ccccc2-c2onc3ccc(N4CCCC4)c1c23	11
73	CCn1nnnc1SCC(=O)Nc1ccc2c(c1)OCO2	11
74	C=CCn1c[n+](CC(=O)c2ccc(Br)s2)c2ccccc21	10
75	Cc1cc(NC(=O)NC2CC(=O)N(c3ccc4c(c3)OCCO4)C2)no1 (stereo unspecified)	12
76	CS(=O)(=O)c1ccc2nc(NC(=O)c3ccc(N4C(=O)CCC4=O)cc3)sc2c1	10
77	CN1/C(=C\C(=O)c2cccnc2Cl)C(C)(C)c2ccccc21	21
78	COc1cccc(-c2nn(-c3ccccc3)cc2CNC(C)Cn2cncn2)c1 (stereo unspecified)	11
79	Cc1cccc(-c2nc3ccccc3c(=O)n2NC(=O)c2cccnc2Cl)c1	4
80	COc1ccc(-c2nnn(CC(=O)N(CCO)C(C(=O)NC3CCCC3)c3ccncc3)n2)cc1 (stereo unspecified)	9
81	O=C(Nc1ccccc1)Oc1cccc(Br)c1	28
82	COc1ccc(NC(=O)/C(C#N)=C/c2c(C)nn(-c3ccc(F)cc3)c2Cl)cc1OC	10
83	CCN(C(=S)NC(=O)CCc1ccccc1)c1ccccc1	15
84	Cc1ccc(-n2ncc(C(=O)Nc3cc(Cl)cc(Cl)c3)c2C2CCNCC2)cc1C	10
85	COc1ccc(NC(=O)n2nc(OC(=O)c3cccs3)cc2N)cc1	19
86	COc1cccc(C(=O)Nc2cc(Cl)c(O)c(Cl)c2)c1	27
87	O=C(Cn1nnc(-c2ccccc2)n1)N/N=C/c1cc([N+](=O)[O-])ccc1O	11
88	CC(Sc1nnnn1-c1ccc(O)cc1)c1nc2ccccc2c(=O)[nH]1 (stereo unspecified)	27
89	Cc1cccc(N=N/C(=C\O)C(=O)c2ccc(Br)cc2)c1	14
90	CCn1cc(C2C3=C(CC(C)(C)CC3=O)N(c3ccccc3)C3=C2C(=O)CC(C)(C)C3)c(C)n1	15

Another view of part of the listing above:
(86) COc1cccc(C(=O)Nc2cc(Cl)c(O)c(Cl)c2)c1
- Calb biofilm kill: 27
(83) CCN(C(=S)NC(=O)CCc1ccccc1)c1ccccc1
- Calb biofilm kill: 15
(88) CC(Sc1nnnn1-c1ccc(O)cc1)c1nc2ccccc2c(=O)[nH]1 (stereo unspecified)
- Calb biofilm kill: 27
(84) Cc1ccc(-n2ncc(C(=O)Nc3cc(Cl)cc(Cl)c3)c2C2CCNCC2)cc1C
- Calb biofilm kill: 10

Continued.
item	SMILES	Calb biofilm kill
91	S=c1nc(C23CC4CC(CC(C4)C2)C3)nc2sccn12	17
92	NC(CCC(=O)O)C12CC3CC(CC(C3)C1)C2 (stereo unspecified)	10
93	O=C1N=c2ccccc2=C1c1[nH]c(=S)[nH]c1O	15
94	COc1ccccc1N(CC(O)Cn1ccnc1C)S(=O)(=O)c1ccccc1 (stereo unspecified)	14
95	CC(C)Oc1cccc(NC(=O)c2cnccc2C(F)(F)F)c1	15
96	Cc1ccc(Cl)cc1NC(=O)Cn1cc(C(F)(F)F)cc(Cl)c1=O	14
97	CN(C)c1ccc(N2CC(C)(C)C2=O)cc1	15
98	CCc1nc2ccc(C(=O)Nc3ccc(NC(C)=O)cc3)cc2nc1CC	26
99	COc1cccc2cc(-c3nc4ccccc4o3)c(=O)oc12	-4
100	COc1ccc(CN(C(=O)CSc2nnc(-c3c[nH]c4ccccc34)o2)c2ccc(F)cc2)cc1OC	11
101	CC1CN(C(=O)COC(=O)c2cc(Cl)ccc2Cl)CC(C)O1 (stereo unspecified)	10
102	COc1ccc(-c2cc(=O)c3ccccc3o2)cc1	23
103	NS(=O)(=O)c1ccc(CCNC(=O)CNS(=O)(=O)c2cccc(Br)c2)cc1	11
104	O=C(CSc1ccccn1)C12CC3CC(CC(C3)C1)C2	9
105	C/C(=N\NC(=S)NC1CCCCC1)c1cccc(C(F)(F)F)c1	15
106	CN(C)/C=C(\C#N)C(=O)N/N=C(\CC(=O)C(F)(F)F)c1ccco1	-3
107	Cc1ccc(NS(=O)(=O)c2cc(NC(=O)c3ccc4c(c3)NC(=O)CS4)ccc2Cl)c(C)c1	-8
108	Cc1ccc(S(=O)(=O)c2c(C)nn(-c3ccccc3)c2OC(=O)c2ccco2)cc1	19
109	COc1ccc(NC(=O)c2ccc(Cl)nc2)cc1S(=O)(=O)N1CCCCC1	-21
110	O=C(O)/C=C/C(=O)Nc1ccc2nccnc2c1	11
111	COc1cc(NC(=O)CSc2nccc(=O)[nH]2)c(C)cc1[N+](=O)[O-]	7
112	COc1ccc2c(c1)C1=C(CC2)C(c2ccc(C)cc2)NC(=S)N1 (stereo unspecified)	16
113	CC1CCN(S(=O)(=O)c2ccc(C(=O)Nc3nnc(-c4ccccn4)o3)cc2)CC1	11
114	CCOC(=O)c1c(N=CN(C)C)c(C#N)c2n1CCCC2	10
115	O=C(c1ccccc1)[C@@H]1[C@@H](C(=O)c2ccc(F)cc2)[C@@]2(C(=O)Nc3ccccc32)[C@H]2c3ccccc3C=CN12	11
116	CCc1ccc(NC(=S)N(CCN2CCCCC2)Cc2ccco2)cc1	16
117	COC(=O)c1oc(-c2ccccc2)nc1C	9
118	O=C(O)/C=C/C(=O)N1CCN(c2cccc(Cl)c2)CC1	7
119	C/C(=N\NC(N)=O)c1ccc(-n2ccnc2)cc1	1
120	CCOC(=O)CSc1nc(=O)n2ccccc2n1	-8
121	Cc1cc(C)nc(SCC(=O)Nc2ncccn2)n1	9
122	CCOc1cccc(C(=O)NC(=S)Nc2cccnc2)c1	17
123	COc1ccccc1NC(=O)c1cc(Cl)nc2ccccc12	17
124	Cc1ccc(NC(=O)C2(c3cccs3)CCOCC2)cc1C	18
125	C[C@@H]1CC[C@@]2(O[C@H](CCO)C[C@@H](O)[C@@H]2O)O1	-2
126	CC1CN(C(=O)/C=C/c2ccccc2[N+](=O)[O-])CC(C)O1 (stereo unspecified)	5
127	COCCNC(=O)/C(C#N)=C/c1c(F)cccc1Cl	6

Quoted at random: 2 compounds from above
item	SMILES	Calb biofilm kill
125	C[C@@H]1CC[C@@]2(O[C@H](CCO)C[C@@H](O)[C@@H]2O)O1	-2
123	COc1ccccc1NC(=O)c1cc(Cl)nc2ccccc12	17
